Mtb MenB inh: inhibitors of Mycobacterium tuberculosis MenB enzyme. P9WNP5. MenB enzyme assay, absorbance read-out; some hits fall short of the stated cut. inhibition, %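 (about 12 µg/mL by stock and volumes)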. 0.43% of 100,000 active. AID 540299;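 active = mean of two replicates above 30%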;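 also: 0% = no compound and 100% = wells with inactive enzyme; the first replicate is given; strong numbers were not always called active; inactives centre near -10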
Target sequence (P9WNP5 whole entry, looked up): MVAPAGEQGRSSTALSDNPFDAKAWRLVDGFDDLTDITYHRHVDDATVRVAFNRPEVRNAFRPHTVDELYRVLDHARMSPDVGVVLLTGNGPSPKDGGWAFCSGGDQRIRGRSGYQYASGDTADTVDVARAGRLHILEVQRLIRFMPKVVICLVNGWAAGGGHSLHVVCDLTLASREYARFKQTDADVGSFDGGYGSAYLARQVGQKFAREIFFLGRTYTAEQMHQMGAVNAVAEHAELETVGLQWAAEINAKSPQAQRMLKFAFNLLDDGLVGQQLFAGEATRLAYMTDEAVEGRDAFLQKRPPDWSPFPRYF
MbtI inh: inhibitors of Mycobacterium tuberculosis siderophore enzyme MbtI. P9WFX0. 0.89% of 100,000 active. inhibition, %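 (about 17 µg/mL by stock and volumes)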. purified MbtI enzyme, fluorescence intensity read-out;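 active = above 50% in both replicates, above 80% if mildly self-fluorescent; inactive = the rest, strongly fluorescent compounds included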;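 also: 0% = mean of negative and 100% = mean of positive controls; one replicate is shown; some compounds called inactive have numbers as strong as hits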
Polio RdRp inh: inhibitors of poliovirus RNA polymerase binding and polymerization; 0.66% of 150,000 active; AID 588519; P03300; % elongation, % (compound at 16.7 µg/mL); poliovirus polymerase elongation, fluorescence polarization; hits give low values; in the data active = % elongation below about 90%; also: some results filed as inactive read as strong as hits
Target sequence (P03300 1749-2209 limits assumed): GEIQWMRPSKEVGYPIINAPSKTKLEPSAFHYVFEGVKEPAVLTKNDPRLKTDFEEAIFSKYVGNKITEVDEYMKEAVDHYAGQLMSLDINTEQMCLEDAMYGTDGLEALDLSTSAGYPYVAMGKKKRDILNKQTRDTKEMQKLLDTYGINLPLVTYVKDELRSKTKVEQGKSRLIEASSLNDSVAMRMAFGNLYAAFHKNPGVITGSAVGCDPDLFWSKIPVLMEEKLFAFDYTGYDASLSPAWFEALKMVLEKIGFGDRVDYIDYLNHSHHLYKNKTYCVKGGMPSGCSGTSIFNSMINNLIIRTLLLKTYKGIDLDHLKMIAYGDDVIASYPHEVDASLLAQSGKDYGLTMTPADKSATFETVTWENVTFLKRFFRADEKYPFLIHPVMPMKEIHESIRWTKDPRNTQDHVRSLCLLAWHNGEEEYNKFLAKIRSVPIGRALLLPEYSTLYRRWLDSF
Polio RdRp inh intensity: second read-out of Polio RdRp inh, no call of its own (marks repeat the call); % elongation; measured here: total intensity read-out; formula for this scale not given here;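 total fluorescence in place of polarization; lower means less elongation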
An asterisk follows results filed as active; · = not tested or not shown.

SMILES	Mtb MenB inh	MbtI inh	Polio RdRp inh	Polio RdRp inh intensity
CN(C)S(=O)(=O)c1ccc(S(=O)(=O)N2CCN(CCC#N)CC2)cc1	-19	-1	99	101
CN1C(=O)c2cccc(NC(=O)c3ccccc3)c2C1=O	-46	88	104	101
CCc1nnc(/N=C/c2cc(-c3ccccc3)oc2O)s1	-29	1	106	101
O=C(Cn1cnnn1)Nc1cc(C(F)(F)F)ccc1NC1CCCCC1	-15	-3	100	98
CC(Nc1nn2nnnc2c2ccccc12)c1ccccc1 (configuration not stated)	0	0	102	103
CC(C)(C)C1CCC2(CC1)C(C#N)=C(SCC(=O)NC1CCCCC1)NC(=O)C2C#N (configuration not stated)	-28	-4	104	105
CCn1c(=N)c(C(=O)OC)cc2c(=O)n3cc(C)ccc3nc21	-6	114	103	105
CCOc1ccc(S(=O)(=O)c2c(C(=O)c3ccc(C)c(C)c3)cnc3ccc(F)cc23)cc1	-19	-9	103	98
O=S(=O)(c1cccc(-c2nnco2)c1)N1CCCC1	-9	16	97	92
CCCNS(=O)(=O)c1cc(Br)cc2c1N(C(=O)CC)CC2	-17	6	103	104
Cc1ccc(-n2c(C)cc(CO)c2C)cc1	14	-1	104	107
CCN1CCN(C(=O)/C=C\C(=O)O)CC1	7	-4	102	104
CCOC(=O)Cn1nc(-c2ccccc2)c2cnc3ccc(CC)cc3c21	-1	62	102	107
Cn1c(=Nc2ccc(N3CCOCC3)cc2)ccc2ccccc21	-5	-3	101	102
O=C(c1cc2c(s1)-c1ccsc1CC2)N1CCN(c2ccccc2)CC1	5	43	99	102
O=c1c(=NNc2ccccc2)c(=O)c2ccccc12	-348	16	98	101
O=C(Cn1nnc(-c2ccccc2)n1)N1CCCCC1	20	-18	101	102
CC(=O)N1CC(C)Oc2ccc(S(=O)(=O)N(Cc3ccccc3)C(C)C)cc21 (configuration not stated)	-13	-1	98	103
O=c1cc(CN2CCN(c3ccc(F)cc3)CC2)occ1OCC1OCCO1	-7	8	102	104
CCCc1nc2ccccc2n1CC(=O)c1ccc(F)cc1	·	1	103	104
CCn1nc(C)c(NC(=S)Nc2ccc(OC)c(OC)c2)c1C	-1	-1	97	103
CCCCCOc1ccc(NC(=O)C(C)(C)C)cc1	6	5	·	·
Cc1cc(C(=O)Cn2cnnc2C#N)c(C)n1CCc1ccc(Cl)cc1	-6	-5	104	105
C[C@H](NC(=O)c1ccc(F)cc1)c1nc2ccccc2[nH]1	-22	4	105	113
CC(C)CCNc1nc2ccccc2n2cnnc12	4	-2	100	104

6 compounds picked at random from the list so far, as already listed:
SMILES	Mtb MenB inh	MbtI inh	Polio RdRp inh	Polio RdRp inh intensity
CCCc1nc2ccccc2n1CC(=O)c1ccc(F)cc1	·	1	103	104
Cc1cc(C(=O)Cn2cnnc2C#N)c(C)n1CCc1ccc(Cl)cc1	-6	-5	104	105
Cn1c(=Nc2ccc(N3CCOCC3)cc2)ccc2ccccc21	-5	-3	101	102
CCn1nc(C)c(NC(=S)Nc2ccc(OC)c(OC)c2)c1C	-1	-1	97	103
CCOC(=O)Cn1nc(-c2ccccc2)c2cnc3ccc(CC)cc3c21	-1	62	102	107
C[C@H](NC(=O)c1ccc(F)cc1)c1nc2ccccc2[nH]1	-22	4	105	113

Back to the main list with the five entries that preceded the break.
SMILES	Mtb MenB inh	MbtI inh	Polio RdRp inh	Polio RdRp inh intensity
CCn1nc(C)c(NC(=S)Nc2ccc(OC)c(OC)c2)c1C	-1	-1	97	103
CCCCCOc1ccc(NC(=O)C(C)(C)C)cc1	6	5	·	·
Cc1cc(C(=O)Cn2cnnc2C#N)c(C)n1CCc1ccc(Cl)cc1	-6	-5	104	105
C[C@H](NC(=O)c1ccc(F)cc1)c1nc2ccccc2[nH]1	-22	4	105	113
CC(C)CCNc1nc2ccccc2n2cnnc12	4	-2	100	104
Cc1n[nH]c(C)c1CCNC(=O)Nc1ccccc1-c1ccccc1	0	-29	101	101
O=c1[nH]nc(SCc2cscn2)n1CCc1ccccc1	4	4	105	105
CCOc1ccc(C2=NC3(CCN(C(C)C)CC3)NC(c3cc(Cl)ccc3O)C2)cc1 (configuration not stated)	-16	3	106	104
FC(F)(F)c1ccc(Cl)nc1Cl	-10	-4	100	96
CN(Cc1ccccc1)C1(O)C(=O)Nc2ccc(Br)cc21 (configuration not stated)	-76	4	101	104
CC(C)CCN(C)C1CCN(C(=O)Nc2ccc(Cl)c(Cl)c2)CC1	-6	-3	101	104
CC(C)(C)c1cc(SCCC#N)cc(C(C)(C)C)c1O	-13	-2	105	105
COc1ccccc1NC(=O)CSc1nnc(-c2cc3sccc3n2C)n1-c1c(C)cc(C)cc1C	0	-6	103	102
CCOC(=O)Cn1cc2c(c1-c1ccccc1Br)c(=O)n(C)c(=O)n2C	7	-7	102	98
CCOC(=O)N1CCN(C(=O)N2c3ccccc3Sc3ccccc32)CC1	-21	0	102	100
CCOC(=O)c1ccc2c(N)c(-c3cccnc3)sc2n1	-15	2	100	107
CCN(CC)S(=O)(=O)c1ccc(C(=O)NCC(=O)Nc2nc3ccccc3[nH]2)cc1	-2	14	100	106
O=S(=O)(NCc1ccco1)c1ccc(-c2ccc(S(=O)(=O)NCc3ccco3)cc2)cc1	-86	2	104	103
Cc1cc2cc3c(cc2nc1SCC(=O)OC(C)C)OCO3	-14	2	103	102
CCc1ccc(C(=O)CC2(O)C(=O)N(C(C)C)c3ccccc32)cc1 (configuration not stated)	-13	-7	96	107
O=c1cc(CSc2nc3c(sc(=S)n3Cc3ccco3)c(=O)n2-c2ccccc2)c2ccc(O)cc2o1	-19	3	102	104
Cc1cccc(NC(=O)CC2CC3CCC2C3)c1 (configuration not stated)	-20	-10	101	104
COc1cccc2cc(-c3cc(=O)oc4ccc(OC(=O)N5CCOCC5)cc34)oc12	-29	-4	102	109
Cc1ccc(NC(=O)Cn2cnc3onc(C)c3c2=O)cc1C	-26	4	101	101
O=C(/C=C/c1ccccc1)NC1CCCc2ccccc21 (configuration not stated)	·	-1	100	106
CCc1ccc(-c2cc3c(=O)n(CC(=O)NC(C)CCc4ccccc4)nc(C)n3n2)cc1 (configuration not stated)	-4	1	103	102
CN1CCCN(C(=O)c2sc3ccccc3c2Cl)CC1	·	-15	102	101
Cc1nnsc1C(=O)N1CCC(C(F)(F)F)CC1	-12	-13	100	101
Cc1nn(CCC#N)c2c1P(=Nc1ccccc1Cl)(N1CCOCC1)N(C)C(c1ccccc1F)=N2 (configuration not stated)	-13	-5	105	105
CC1=C(C(N)=O)C(c2cccnc2)n2nnnc2N1 (configuration not stated)	-15	·	109	113
SMILES	Mtb MenB inh	MbtI inh	Polio RdRp inh	Polio RdRp inh intensity
COc1ccc(-c2noc(N3CCC(C(=O)Nc4cccc(OC)c4)CC3)n2)cc1	-25	-11	102	107
Cn1c(=O)c2cc(C(=O)NCC3(c4ccccc4)CCCC3)sc2c2ccccc21	-25	-21	103	107
CCC(C)N(C(=O)/C=C/c1cccs1)C(C)CC (configuration not stated)	-12	17	100	100
CCN(CC)C(=O)c1ccccc1NC(=O)Cc1ccccc1	1	-8	100	103
C/C(CCn1c(=O)sc2ccccc21)=N\NC(N)=S	-11	9	100	103
C=C(C)c1cccc(C(C)(C)NC(=O)Nc2ccc(OC)nc2)c1	-11	-1	86	114
COc1ccc(/C=C/C(=O)O)cc1S(=O)(=O)N(C)CCO	11	5	103	98
O=C1NCCC/C1=N/Nc1ccccc1	-5	11	101	103
O=C(Cc1cc(=O)[nH][nH]1)N/N=C/c1cccc(Cl)c1Cl	-83	15	101	101
C/C(=N/NC(=S)Nc1ccccc1)c1ccc2c(c1)OCO2	-61	10	101	104
Cc1onc(-c2ccccc2)c1C(=O)NNc1ccccc1C(F)(F)F	-24	8	103	103
N#Cc1cccc(NC(=O)c2ccc3ncsc3c2)c1	-16	0	107	106
Cc1ccc2oc(=O)c3cnn(CC(=O)N(CC(C)C)CC(C)C)c3c2c1	-35	-5	104	103
CC1CC(C)CN(c2nc3c(c(=O)[nH]c(=O)n3C)n2Cc2ccccc2F)C1 (configuration not stated)	-17	0	100	100
N#CC1(C#N)C(C(=O)c2ccc(F)cc2)C12CCSCC2 (configuration not stated)	-24	-2	102	98
CC(NC(=O)c1cccc(S(C)(=O)=O)c1)c1ccc2c(c1)OCCO2 (configuration not stated)	-3	-4	100	106
OCCNc1nc2ccccc2nc1-c1ccccc1	-61	-57	102	102
CC(C)Cn1cc(C(=O)N2CCN(Cc3ccc4c(c3)OCO4)CC2)c2c3ccccc3n(C)c2c1=O	-16	118	99	104
CCN1C(=O)c2cccc3c(NC(=O)C4CCCCC4)ccc1c23	·	-3	112	107
CCOc1ccc(SCC(=O)O)cc1	12	0	100	106
COc1ccc(N/N=C(\C#N)C(=O)Nc2ccc(C)c(C)c2)cc1	-72	6	76	163
O=C(O)Cn1c(-c2ccccc2)nc2ccccc21	-17	12	101	105
O=c1nc2n(c3sc4c(c13)CCCC4)Cc1ccccc1C2	-37	2	54	234
O=S(=O)(c1cccs1)N(c1cccc(F)c1)S(=O)(=O)c1cccs1	-8	4	99	99
Cc1ccc(CCNC(=O)c2ccc3nc(-c4ccco4)c(-c4ccco4)nc3c2)cc1	-15	58	101	102
SMILES	Mtb MenB inh	MbtI inh	Polio RdRp inh	Polio RdRp inh intensity
O=c1[nH]c2ccccc2n1CCCSc1cc(C(F)(F)F)c2cc3c(cc2n1)OCO3	-1	-1	·	·
O=C(CSC1=NNC(c2ccccn2)S1)Nc1cccc(Cl)c1 (configuration not stated)	-56	20	103	111
CN(C)C(=O)COc1ccccc1C(=O)O	-11	-7	101	107
COc1ccc(CCN(C)c2nnnn2-c2ccccc2)cc1OC	-17	12	98	102
O=C(c1cc2cc(Br)ccc2oc1=O)N1CCOCC1	4	0	102	103
COC(=O)C(C)Nc1ncnc2onc(C)c12 (configuration not stated)	-28	-10	103	104
CC(=O)N1c2ccccc2C2=NNC(=S)NC21O (configuration not stated)	-10	·	104	100
COc1ccc(S(=O)(=O)SC)cc1N	-5	-40	96	99
CCOc1ccc(S(=O)(=O)NCc2cn3ccccc3n2)cc1	8	7	102	109
O=C(Cn1c(=O)n(Cc2ccco2)c(=O)c2oc3ccccc3c21)NCc1ccccc1	-9	-45	101	104
N#Cc1c(NC(=O)CON2C(=O)CCC2=O)sc2c1CCCC2	3	15	99	101
Brc1ccc(CN2CCC(N3CCCCC3)CC2)cc1	-7	-9	99	103
O=S(=O)(NCC1CCCO1)c1ccc(Br)s1 (configuration not stated)	-5	-14	101	102
CC(C(=O)N(C)Cc1ccccc1)N1CCN(S(=O)(=O)c2ccccc2C(F)(F)F)CC1 (configuration not stated)	6	-14	104	98
Cc1ccc2oc(=O)c3cnn(CC(=O)N4CCC(C)CC4)c3c2c1	-30	-5	104	101
O=C(Cc1c[nH]c2ccccc12)Nc1cccc(-n2cnnn2)c1	-5	-13	99	112
O=S(=O)(N1CCCCC1)N1CCN(CC(O)COc2ccc3cc(Br)ccc3c2)CC1 (configuration not stated)	-9	-12	101	100
CCN(CC)C(=O)c1c(C)oc2ncn(CC(C)C)c(=O)c12	-5	-8	101	103
CCc1ccccc1Nc1nc(N)nc(COC(=O)Cn2cc(C(F)(F)F)ccc2=O)n1	-5	-10	103	110
c1n[nH]c2c1CNCC2	3	-2	100	102
CC(C)CNC(=O)c1ccc(CSc2ncn[nH]2)cc1	3	-3	102	103
CSc1ncc(Cl)c(C(=O)Nc2ccc(S(=O)(=O)N3CCCCC3)cc2)n1	-9	0	103	102
O=C(NCCN1CCOCC1)c1ccccc1Oc1ccccc1	-8	·	103	104
Nc1ccnn1-c1ccccc1	-5	-19	100	102
Cc1ccc(S(=O)(=O)CCSc2nccc(-c3cccs3)n2)cc1	3	1	100	108
SMILES	Mtb MenB inh	MbtI inh	Polio RdRp inh	Polio RdRp inh intensity
CNC(=O)c1ccc(N2CCOc3ccc(Cl)cc32)s1	12	-270	101	97
O=C(Oc1nsnc1N1CCOCC1)c1ccccc1	-6	·	47*	56*
O=C(ON1C(=O)c2ccccc2C1=O)c1ccc(F)cc1	2	-9	102	102
CCOC(=O)N1CCN(c2ccnc3cc(Cl)ccc23)CC1	-21	-48	97	98
CCc1cccc(N(c2nc(-c3ccc(OC)c(OC)c3)no2)c2nc(-c3ccc(OC)c(OC)c3)no2)c1	15	1	103	103
Cc1cc2ccccn2c1C(=O)Nc1ccccc1	·	-63	101	105
COc1ccc(CC(=O)NC2CC2)cc1OC	3	6	100	99
O=C1CNC(=S)N1Cc1ccccc1Cl	-20	4	106	94
O=C(c1cccs1)N1CC=C(c2ccccc2)CC1	10	6	105	98
CCC(C)NC(=O)c1cc2cc3cc(OC)ccc3nc2o1 (configuration not stated)	-55	106	101	100
CCC1(CC)Cc2ccccc2-c2[nH]c(=S)n(Cc3ccccc3)c(=O)c21	-16	-10	102	116
Cc1ccc(S(=O)(=O)C2(C(=O)Nc3ncccc3C)CC2)cc1	·	19	103	106
CCOc1ccc(N=C2SCCCN2C(=O)C2=CC=CN3CCS(=O)(=O)N=C23)cc1	-12	1	102	99
O=C(Nc1ccc2nc3n(c(=O)c2c1)CCCC3)C1COc2ccccc2O1 (configuration not stated)	-24	1	101	103
N#CCS(=O)c1ccccc1 (configuration not stated)	7	-18	106	108
COC(=O)C1=C(C)NC(=O)CC1c1ccccc1I (configuration not stated)	6	-2	104	107
CC(C)(CNC(=O)c1ccc2nc[nH]c2c1)N1CCOCC1	10	-4	·	·
C/C(=N\NC(N)=O)c1ccc(C#N)cc1	-16	15	104	106
NNC(=O)c1nnn(-c2nonc2N)c1CN1CCCC1	-5	-15	103	103
COc1ccc(C(C)N)cc1Br (configuration not stated)	8	4	98	101
COc1ccc(S(=O)(=O)NCCSCc2cccs2)cc1	-18	-10	102	102
